High-throughput results from PubChem.
Arbovirus inh = antivirals against arbovirus infection; inhibition, % at 10 µM; actives 0.37% (n = 200,000); arbovirus infection cell-based antiviral screen;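 active = inhibition from about 30%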;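 note: bluetongue infection of BSR cells; cell survival read as ATP light after 72 h; 0% = infected wells without compound and 100% = uninfected wells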
RecA intein inh = inhibitors of M. tuberculosis RecA intein splicing; P9WHJ3; cell-free RecA intein splicing, fluorescence; actives 0.75% (n = 290,000); inhibition, %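 (about 9 µM by stock and volumes)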; AID 2221; in the data active = inhibition above about 30%;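 note: 0% = vehicle wells and 100% = reference inhibitor control wells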
Target sequence (P9WHJ3 whole entry, looked up): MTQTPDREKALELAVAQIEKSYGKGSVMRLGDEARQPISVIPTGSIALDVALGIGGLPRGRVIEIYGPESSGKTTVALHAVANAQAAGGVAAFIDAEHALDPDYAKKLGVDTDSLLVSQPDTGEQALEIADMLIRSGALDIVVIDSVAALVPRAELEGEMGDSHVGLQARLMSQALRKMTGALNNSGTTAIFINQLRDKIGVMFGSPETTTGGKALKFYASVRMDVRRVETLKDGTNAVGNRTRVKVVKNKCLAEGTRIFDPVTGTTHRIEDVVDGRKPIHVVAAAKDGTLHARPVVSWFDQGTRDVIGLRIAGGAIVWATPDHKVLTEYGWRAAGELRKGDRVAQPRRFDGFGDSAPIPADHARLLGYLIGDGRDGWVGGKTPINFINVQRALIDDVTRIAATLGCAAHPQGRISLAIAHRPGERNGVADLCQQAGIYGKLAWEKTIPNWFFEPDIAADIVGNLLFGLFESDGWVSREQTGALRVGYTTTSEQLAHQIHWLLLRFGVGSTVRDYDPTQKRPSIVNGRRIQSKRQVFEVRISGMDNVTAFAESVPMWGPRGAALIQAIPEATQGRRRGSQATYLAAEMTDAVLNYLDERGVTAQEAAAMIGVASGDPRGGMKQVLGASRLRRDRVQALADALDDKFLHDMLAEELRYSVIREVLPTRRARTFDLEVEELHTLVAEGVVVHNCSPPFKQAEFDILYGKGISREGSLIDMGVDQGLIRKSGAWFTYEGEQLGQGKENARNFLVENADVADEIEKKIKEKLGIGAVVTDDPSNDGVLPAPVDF
Mtb betalactam = beta-lactam sensitization of Mtb H37Rv | actives 0.27% (n = 330,000) | AID 434955 | inhibition, % at 25 µM | M. tuberculosis H37Rv growth with meropenem, percent inhibition; hits of this screen are not shown here;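 active = about 74% or more and at least 40 points above the plate without the antibiotic, then above 30% in a dose series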;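 note: growth measured after seven days incubation then overnight dye step; 0% = bacteria only wells and 100% = bacteria with antibiotic; twin plates without the antibiotic show which effects depend on it; some results filed as inactive read as strong as hits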
YopH PTP inh = inhibitors of Yersinia enterocolitica YopH tyrosine phosphatase; AID 898; actives 0.16% (n = 140,000); inhibition, %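 (about 10 µM by stock and volumes)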; fluorescence Ex485/Em525;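 active = inhibition of 50% or more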;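 note: controls were vehicle for no effect and minimum signal wells for full effect; inactives centre near -20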
Mtb growth = M. tuberculosis H37Rv growth inhibitors, H37Rv strain (AID 1626) | one-dose inhibition, % at 10 µM; IC50 in µM for titrated hits | actives 0.95% (n = 220,000) | M. tuberculosis H37Rv growth inhibition; higher % means a stronger effect;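 active = confirmed in a dose series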;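 note: bacteria incubated seven days before Alamar blue readout; 0% = bacteria only wells and 100% = bacteria with antibiotic wells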
Arbovirus inh repeat = also measured in Arbovirus inh; calls as there; inhibition, %; measured here: 10K subset replicate screen; many hits read low in the repeat;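 first of two repeat runs on a subset; 0% = infected and 100% = uninfected wells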
* = called active by the depositor. These rows are one share of the data; the hit share may differ from the screen's.

For Cc1cc(-c2nc(C)c(-c3nnc(SCC(=O)Nc4ccccc4)n3C)s2)no1 the results were RecA intein inh 1.6, Mtb betalactam -2 and Mtb growth -9%.
For O=C1N=C(N2CCN(Cc3ccccc3)CC2)S/C1=C/c1cccs1 the results were RecA intein inh -3.4, Mtb betalactam -8 and Mtb growth 7%.
Screening Cc1ccc(OCC(=O)N2CCN(Cc3cccnc3)CC2)cc1 returned Arbovirus inh 9, RecA intein inh -1.3, Mtb betalactam -1 and Mtb growth 4%.
`Cc1ccc(C(=O)CNc2ccc(C)c(Cl)c2)cc1` gave Arbovirus inh -5, RecA intein inh 0.0, Mtb betalactam 92, YopH PTP inh -14 and Mtb growth >100µM*.
`O=C(NC1C2CC3CC(C2)CC1C3)c1ccc(N2CCNCC2)c([N+](=O)[O-])c1` (configuration not stated) gave RecA intein inh -0.9, Mtb betalactam -11 and Mtb growth 2%.
For O=C(COC(=O)CN1C(=O)COc2ccccc21)NCc1ccc(F)cc1 the results were RecA intein inh 0.0 and Mtb betalactam -15.
`Cc1ccc(C(=O)Nc2ccccc2C(=O)O)cc1S(=O)(=O)NCc1ccccc1` gave Arbovirus inh 14, RecA intein inh 2.4, Mtb betalactam -9 and Mtb growth -4%.
Screening CCc1ccc2nc(SCC(=O)Nc3nnc(C)s3)c(C)cc2c1 returned Arbovirus inh 7, RecA intein inh -0.7, Mtb betalactam 0 and Mtb growth 3%.
`COc1ccc(OCc2cc(C(=O)N3CCC(c4ccccc4)CC3)no2)c(Cl)c1` gave RecA intein inh 0.3 and Mtb betalactam -7.
For CCCc1nn2c(=O)c(C(c3cccc(Cl)c3)c3c(O)nc4sc(CCC)nn4c3=O)c(O)nc2s1 the results were Arbovirus inh 5, RecA intein inh 0.7, Mtb betalactam -1 and YopH PTP inh 4.
For Cc1ccc2nc(CCc3nc4ccc(C)cc4o3)oc2c1 the results were Arbovirus inh -5, RecA intein inh 0.4, Mtb betalactam -5, YopH PTP inh -50 and Mtb growth -4%.
For COc1ccc(/C(C)=N/OCC(=O)Nc2nc3ccccc3s2)cc1OC the results were Arbovirus inh -2, RecA intein inh 1.7, Mtb betalactam 4, YopH PTP inh -29 and Mtb growth -5%.
Screening COC(=O)CCCCCCCC(=O)Nc1nnc(C(F)(F)F)s1 returned Mtb betalactam -4 and Mtb growth 8%.
CCOc1ccc(N2C(=O)NC(Cc3c[nH]c4ccccc34)C2=O)cc1 (configuration not stated) was read as Arbovirus inh -3, RecA intein inh 1.8, Mtb betalactam -5, YopH PTP inh -4 and Mtb growth -2%.
For CSc1nc2ccc(NC(=O)c3ccc(F)c(F)c3)cc2s1 the results were Arbovirus inh -2, RecA intein inh 2.3, Mtb betalactam 45 and Mtb growth 68%.

For convenience, some entries already given:
Screening COC(=O)CCCCCCCC(=O)Nc1nnc(C(F)(F)F)s1 returned Mtb betalactam -4 and Mtb growth 8%.
CCOc1ccc(N2C(=O)NC(Cc3c[nH]c4ccccc34)C2=O)cc1 (configuration not stated) was read as Arbovirus inh -3, RecA intein inh 1.8, Mtb betalactam -5, YopH PTP inh -4 and Mtb growth -2%.
For CSc1nc2ccc(NC(=O)c3ccc(F)c(F)c3)cc2s1 the results were Arbovirus inh -2, RecA intein inh 2.3, Mtb betalactam 45 and Mtb growth 68%.

The list continues:
Screening O=C(O)/C=C\C(=O)Nc1ccccc1N1CCN(c2ccccc2)CC1 returned RecA intein inh 1.3 and Mtb betalactam 2.
CCc1ccc(/C=N/n2c(C)cc(C)c(C#N)c2=O)cc1 was read as Arbovirus inh -1, RecA intein inh 1.4, Mtb betalactam 1, YopH PTP inh -24 and Mtb growth -1%.
For Cc1cc(C)cc(OCC(=O)OCC(=O)NC2CCCCCCC2)c1 the results were RecA intein inh 7.0 and Mtb betalactam 2.
Screening COCc1ccc(CN2CCCC(C(=O)Nc3ccc(-c4cccc(OC)c4)cc3)C2)o1 (configuration not stated) returned RecA intein inh 1.1 and Mtb betalactam 98.
Screening O=C(CC1C(=O)NCCN1Cc1c(F)cccc1Cl)NCCCN1CCCC1=O (configuration not stated) returned RecA intein inh -1.7 and Mtb betalactam -12.
CC1=C(C(=O)OC2CCCCCCC2)C(c2cc3c(cc2Br)OCO3)CC(=O)N1 (configuration not stated) was read as Arbovirus inh -23, RecA intein inh 25, Mtb betalactam 1, YopH PTP inh 15 and Mtb growth -5%.
O=C(O)CSC(=S)N1CCCCC1 was read as Arbovirus inh 8, RecA intein inh -0.8, Mtb betalactam -6, YopH PTP inh -28 and Mtb growth -7%.
For COc1ccc(NC(=O)CSc2nnc(Cc3cccn3C)n2-c2ccc(F)cc2)cc1OC the results were Arbovirus inh 5, RecA intein inh 0.3, Mtb betalactam 3, YopH PTP inh -21, Mtb growth -3% and Arbovirus inh repeat 1.
O=C(O)C1C2CCC(C2)C1C(=O)Nc1cc(F)ccc1F (configuration not stated) was read as Arbovirus inh 2, RecA intein inh 0.9, Mtb betalactam 1, YopH PTP inh 7 and Mtb growth -7%.
For CCN(CC)CC(=O)Nc1ccc(/C(C)=N/NC2=NCCN2)cc1 the results were Arbovirus inh -6, RecA intein inh -1.4, Mtb betalactam -3 and Mtb growth -4%.
O=C(c1ccc2c(=O)n3c(nc2c1)CCCCC3)N1CCN(c2ccc([N+](=O)[O-])cc2)CC1 was read as RecA intein inh -1.8 and Mtb betalactam 10.
COc1ccc(-n2c(=O)cc(N3CCOCC3)[nH]c2=O)cc1 was read as Arbovirus inh 2, RecA intein inh 1.4, Mtb betalactam 0, YopH PTP inh -13 and Mtb growth -3%.
Screening O=C(NCc1ccccn1)c1nn(-c2ccccc2)c(=O)c2ccccc12 returned Arbovirus inh 1, RecA intein inh 0.6, Mtb betalactam -8 and Mtb growth 8%.
Screening NNC(=O)c1csc(-c2ncc(C(F)(F)F)cc2Cl)n1 returned RecA intein inh -4.8, Mtb betalactam 30 and Mtb growth 7%.
`O=P(NS(=O)(=O)c1ccccc1)(Oc1ccccc1)Oc1ccccc1` gave Arbovirus inh 1, RecA intein inh 1.1, Mtb betalactam 2, YopH PTP inh -26 and Mtb growth -6%.
For O=C(COc1ccccc1)Nc1ccc2oc(=O)ccc2c1 the results were RecA intein inh -0.1 and Mtb betalactam 17.
For CCOC(=O)c1sc(N(C)C(C)=O)nc1C the results were Arbovirus inh -6, RecA intein inh 0.1, Mtb betalactam -5, YopH PTP inh 1 and Mtb growth 2%.
For NS(=O)(=O)c1ccc(CCNC(=O)c2cc3ccccc3s2)cc1 the results were RecA intein inh -1.6 and Mtb betalactam -4.
`CCCSC1=N/C(=C\c2ccsc2)C(=O)S1` gave Arbovirus inh 1, RecA intein inh -0.7, Mtb betalactam -15, YopH PTP inh -29, Mtb growth -5% and Arbovirus inh repeat 7.
Cc1ccc(O)c(-c2cc(C(=O)NCc3ccccc3)[nH]n2)c1 was read as Arbovirus inh 10, RecA intein inh -0.4, Mtb betalactam -3, YopH PTP inh -24 and Mtb growth 3%.
O=C(Nc1ccccc1Cl)C1Cc2ccccc2O/C1=N\O (configuration not stated) was read as RecA intein inh 0.1 and Mtb betalactam -5.
CC(=O)c1sc(-c2ccccc2Cl)nc1C was read as Arbovirus inh -5, RecA intein inh 0.0, Mtb betalactam -4 and Mtb growth 3%.
`CCn1c(SC/C=C/c2ccccc2)nnc1-c1cccs1` gave Arbovirus inh 1, Mtb betalactam -4, YopH PTP inh 22 and Mtb growth 3%.
For CS(=O)(=O)n1nc(-c2ccccc2)nc1N the results were Arbovirus inh 5, RecA intein inh -0.3, Mtb betalactam 11, YopH PTP inh -18 and Mtb growth -7%.
For Cc1cc(C)c(NC(=O)CNC(=O)CN2C(=O)NC3(CCCc4ccccc43)C2=O)c(C)c1 (configuration not stated) the results were RecA intein inh -1.7 and Mtb betalactam 0.
For CSc1nnc(-c2ccccc2N=Cc2c(C)[nH]n(-c3ccc4ccccc4c3)c2=O)c(=O)[nH]1 the results were Arbovirus inh -10, RecA intein inh -2.4, Mtb betalactam 6, YopH PTP inh -131 and Mtb growth 0%.
Screening Cn1c(COc2ccccc2)nnc1SCc1cc(=O)[nH]c2ccccc12 returned Arbovirus inh 8, RecA intein inh -0.9, Mtb betalactam -8, YopH PTP inh -41 and Mtb growth -5%.
Screening CC(=O)Nc1ccccc1C(=O)N1CCc2ccccc21 returned Arbovirus inh -5, RecA intein inh 1.2, Mtb betalactam -9, YopH PTP inh -33 and Mtb growth 5%.
For O=C(CS(=O)CC(=O)N(c1ccccc1)C(C(=O)NC1CCCC1)c1cccs1)Nc1ccc(F)cc1 (configuration not stated) the results were Arbovirus inh -4, RecA intein inh -1.0, Mtb betalactam -1, YopH PTP inh -53 and Mtb growth -6%.
COc1cc(NC(=O)c2ccco2)c(OC)cc1NC(=O)Nc1cccc(Cl)c1 was read as Arbovirus inh -9, RecA intein inh -5.7, Mtb betalactam -1, YopH PTP inh -21 and Mtb growth 5%.
For Cc1cccc(C)c1OCc1cc(C(=O)N2CCNC(=O)C2)no1 the results were RecA intein inh -0.5 and Mtb betalactam -5.
O=C(C[n+]1cccc(O)c1)Nc1ccc(Br)cc1 was read as Arbovirus inh 10, RecA intein inh -0.3, Mtb betalactam 5 and Mtb growth 8%.
CCN(CC)CC(=O)Nc1sc(C)c(C)c1C(=O)c1ccc(C)cc1 was read as Arbovirus inh -2, RecA intein inh 12, Mtb betalactam 2 and Mtb growth -1%.
`Cn1c(C(=O)NCC2CCCO2)cc2c(=O)[nH]c3ccccc3c21` (configuration not stated) gave Arbovirus inh 6, RecA intein inh 0.1, Mtb betalactam 1, YopH PTP inh -7 and Mtb growth -9%.
Screening CCOc1ccc2nc(NC(=O)C3CCCN(S(=O)(=O)c4cccs4)C3)sc2c1 (configuration not stated) returned Arbovirus inh -4, RecA intein inh 0.5, Mtb betalactam 75, YopH PTP inh -46 and Mtb growth 32%.
For COC(=O)C1=CO[C@@H](C)[C@H]2CN3CC[C@]4(C(=O)Nc5ccccc54)[C@@H]3C[C@H]12 the results were RecA intein inh -1.5, Mtb betalactam -4 and Mtb growth -10%.
Screening CC1CCC(NC(=O)c2ccc3snnc3c2)CC1 (configuration not stated) returned RecA intein inh 0.7 and Mtb betalactam -7.
For CC(=O)c1c(C)nn(CC(=O)NC2CCCN(Cc3ccc(CC(C)C)cc3)C2)c1C (configuration not stated) the results were RecA intein inh -7.4 and Mtb betalactam -1.
COc1ccccc1N1CCN(C(=O)CSc2nc3ccccc3c(=O)n2CC2CCCO2)CC1 (configuration not stated) was read as Arbovirus inh 2, RecA intein inh -7.8, Mtb betalactam 7 and YopH PTP inh -45.
`Cc1ccc(OCCn2c(C)nc3ccccc32)cc1` gave RecA intein inh -5.8 and Mtb betalactam 0.
`O=C(NC1CC1)c1cc(F)c(F)cc1Cl` gave Arbovirus inh 2, RecA intein inh 3.4, Mtb betalactam -11, YopH PTP inh -27 and Mtb growth 2%.
`CS(=O)(=O)N(CC(=O)Nc1ccccc1)c1cccc(Cl)c1Cl` gave Arbovirus inh -9, RecA intein inh -2.5, Mtb betalactam -4 and Mtb growth 8%.
Screening Cc1ccc(Cl)cc1N1CCN(C(=O)C2CCC(=O)N2C(C)C)CC1 (configuration not stated) returned Arbovirus inh 0, RecA intein inh 0.3, Mtb betalactam 1, YopH PTP inh -27 and Arbovirus inh repeat 1.
O=C(CCCOc1ccc(Cl)cc1Cl)N/N=C/c1ccccc1O was read as Arbovirus inh -33, RecA intein inh 0.9, Mtb betalactam 5, YopH PTP inh -29 and Mtb growth 1%.
COc1ccc(C2(C(=O)NCCCN3CCOCC3)CCOCC2)cc1 was read as Arbovirus inh 12, RecA intein inh 4.0, Mtb betalactam -11, YopH PTP inh -47 and Mtb growth -2%.
CC1CSc2nnc(CCc3ccccc3)n21 (configuration not stated) was read as Arbovirus inh 10, RecA intein inh 2.1, Mtb betalactam 3, YopH PTP inh -41, Mtb growth 1% and Arbovirus inh repeat 7.

Sorted by formula weight (smallest number first): some entries from above.
`Cc1ccc(OCCn2c(C)nc3ccccc32)cc1` gave RecA intein inh -5.8 and Mtb betalactam 0.
For Cc1cccc(C)c1OCc1cc(C(=O)N2CCNC(=O)C2)no1 the results were RecA intein inh -0.5 and Mtb betalactam -5.
O=C(CCCOc1ccc(Cl)cc1Cl)N/N=C/c1ccccc1O was read as Arbovirus inh -33, RecA intein inh 0.9, Mtb betalactam 5, YopH PTP inh -29 and Mtb growth 1%.
